Compound activity: PubChem BioAssay, PCMD
Calb biofilm kill: mixtures killing C. albicans biofilm; AID 1242; C. albicans biofilm persisters + clotrimazole, fluorescence viability; primary screen in compound mixtures of four per well; inhibition, % at 7.6 µM; 120,000 compounds, 0.02% hits;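 active = inhibition above 30.3% in the primary screen of four-compound pools, then above 30% when the compound was retested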;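 note: compounds exposed to preformed 24 h biofilms for 48 h; the number belongs to the whole pool; some results filed as inactive read as strong as hits; inactives centre near 12; 0% = biofilm with clotrimazole alone and 100% = kill control; retested singly at about 60 µM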
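Test system: C. albicans CAF4-2 wild-type biofilms; buffer or medium: RPMI/MOPS medium, pH 7.0; schedule: 24 h biofilm formation, then 48 h compound exposure, 37 °C; detection: Alamar Blue fluorescence; measure: percent inhibition of biofilm viability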
Starred values were filed as active, the others as inactive. The list is partial, so the mix of outcomes need not match the whole.

SMILES	Calb biofilm kill
COc1cccc(-n2c(=O)c3c(C)c(C(=O)N(C)C)sc3n(CC(=O)NCC3CCCO3)c2=O)c1 (stereo not given)	16
COc1ccc(COc2ccccc2C(=O)Nc2ccccn2)cc1[N+](=O)[O-]	10
CCCCCCn1cnc2c(oc3nc4c(cc32)CCCC4)c1=O	5
CC1(CC(=O)N/N=C/c2cc3c(cc2Br)OCO3)OCCO1	9
COc1cc(C(=O)NCCN2CCCC2)cc(OC)c1OC	12
CC(C)CCNC(=O)CCCCn1c(=O)[nH]c2ccsc2c1=O	8
Cc1ccccc1C(=O)c1c[nH]c(C(=O)NCCc2ccccn2)c1	22
COc1ccc(C(=O)C2CCCN(C(=O)C3=CCCC3)C2)c(C)c1 (stereo not given)	28
Nc1ccccc1S(=O)(=O)C(F)F	12
CCOC(=O)C1(Cc2ccccc2)CCN(Cc2cnn(C(C)C)c2)CC1	-2
Cc1ccnc(NC(=O)c2ccc(Cl)cc2Cl)n1	29
CC(=O)c1ccc(NC(=S)N(C)C2CCN(C)CC2)cc1	6
Cc1ccc(CNCC(=O)Nc2ccc(C)cc2Br)cc1	10
C1CCN=C(NC23CC4CC(CC(C4)C2)C3)CC1	13
CN(C1CCS(=O)(=O)C1)S(=O)(=O)c1ccccc1 (stereo not given)	7
Cc1nn(C)cc1/C=N/NC(=O)c1ccco1	11
COC(=O)c1ccc(NC(=O)c2ccccc2CC[N+](=O)[O-])cc1	6
O=[N+]([O-])c1cccc(C(=S)N2CCCC2)c1	25
O=C(NNC1CC(=O)N(c2ccc(Br)cc2)C1=O)c1ccccn1 (stereo not given)	23
COc1cccc(OC)c1C(=O)Nc1cccc(-c2ccc3nncn3n2)c1	11
CSCCC(NS(=O)(=O)c1ccccc1F)C(=O)NC(C)c1ccccc1 (stereo not given)	2
CCCOC(=O)C(=O)NNc1ccccc1	29
CCN(C(=O)COc1ccc(C)nc1[N+](=O)[O-])C1CCS(=O)(=O)C1 (stereo not given)	9
Cc1cc(Cl)nc(Cl)c1C(=O)N1CCOCC1	11
Cc1ccccc1C(=O)N1CCN(c2ccc([N+](=O)[O-])c(NCc3cccnc3)c2)CC1	12
O=C(c1ccc2c3c(cccc13)CC2)C1CCCN(C(=O)c2ccc(=O)[nH]c2)C1 (stereo not given)	10
COc1ccc2oc(C(=O)NN3C(C)CCCC3C)c(C)c2c1 (stereo not given)	15
S=c1[nH]nc(COc2ccccc2)n1-c1ccccc1	20
CC(=O)c1ccc(N2CCN(C(=S)NCc3ccco3)CC2)cc1	6
CC1CCN(C(C(=O)NC2CCCCC2)c2cc3c(cc2[N+](=O)[O-])OCO3)CC1 (stereo not given)	12
COc1ccc(C(=O)OCC(=O)Nc2sccc2C(N)=O)cc1OC	13
CCOC1(c2ccccc2)CC1C(=O)N/N=C/c1cccc([N+](=O)[O-])c1 (stereo not given)	9
CCn1nnc(NC(=O)Cc2ccc(Cl)cc2)n1	2
O=C(Nc1ccc(Br)cc1)c1ccc(N2C(=O)C3CC=CCC3C2=O)cc1 (stereo not given)	7
C/C(N)=C(/C#N)C(=O)CSc1nc2scc(-c3ccc(F)cc3)c2c(=O)n1C	7
O=C(Nc1nc2ccc([N+](=O)[O-])cc2s1)c1ccc(S(=O)(=O)N2CCCc3ccccc32)cc1	11
O=C(CNCCCO)Nc1cc(C(F)(F)F)cc(NC(=O)CNCCCO)c1Cl	12
CC(C)C(=O)NC(NC(=O)C(C)C)c1ccc([N+](=O)[O-])cc1	17
O=C(NC(=S)Nc1cccc([N+](=O)[O-])c1)c1ccccc1	17
CC/C(=N/Nc1cccc(Cl)c1)c1cnnc(SC)n1	10
O=C(O)C(Cc1ccccc1)N1CCS(=O)(=O)CC1 (stereo not given)	-10
O=C(/C=C/c1cccc(Oc2ccccc2)c1)N1CCOCC1	11
CCCCCCN(C(=O)CCCCCN1C(=O)NC(c2ccc(Cl)cc2)C(C(=O)OCc2ccccc2)=C1C)C(C(=O)NCCCC)c1ccc(OCC(=O)OC)c(C(=O)OC)c1 (stereo not given)	15
COc1ccc(Cl)cc1NC(=O)CSc1nc2sccc2c(=O)[nH]1	9
Cc1ccc(NC(=O)CCNS(=O)(=O)c2ccc3c(c2)c(=O)n(C)c(=O)n3C)cc1C	2
O=C(N/C(=C\c1cn(-c2ccccc2)nc1-c1ccc(Cl)cc1)C(=O)N1CCOCC1)c1ccccc1	6
O=[N+]([O-])c1ccc(OCCO)c(P(=O)(c2ccccc2)c2ccccc2)c1	7
COc1cccc(OC)c1C(=O)Nc1ccc([N+](=O)[O-])cn1	14
COc1ccc(N2C(=O)CC(N(Cc3ccco3)C(=O)CCC(=O)O)C2=O)cc1 (stereo not given)	5
COc1ccccc1/C=N/Nc1nc(C)cc(C)n1	21
(more compounds)
SMILES	Calb biofilm kill
Cc1ccc([N+](=O)[O-])cc1NC(=S)NC(=O)c1cccnc1	6
Cc1cc(C)n(CC(=O)Nc2ccc([N+](=O)[O-])cc2)n1	9
CCN(CC)CCn1c(=N)n(CC(O)COc2cccc(C)c2)c2ccccc21 (stereo not given)	16
CCC(=O)Nc1c(-c2ccccc2)c(=O)c2ccccc2n1C	16
CCOc1ccc(NC(=S)NNC(=O)c2cc(Br)ccc2Cl)cc1	7
CCC(C)N(C(=O)CSc1ccc(NC(C)=O)cc1)C1CCS(=O)(=O)C1 (stereo not given)	-12
CC(=O)c1cc(O)c2ccccc2c1O	16
O=S1(=O)CCC(NC(=S)NC2CCS(=O)(=O)C2)C1 (stereo not given)	-1
Cc1nn(C)cc1C(C(=O)NC1CCCCC1)N(CCc1ccccc1)C(=O)c1cnccn1 (stereo not given)	3
Cc1nnc(N2C(=O)C(O)=C(C(=O)c3ccco3)C2c2ccc(C(C)C)cc2)s1 (stereo not given)	12
O=C(COc1cccc(Br)c1)N/N=C1\CCSC1	16
CCOC(=O)N1CCC(NC(=O)c2ccc(Cl)cc2)CC1	19
O=C(CCC1CCCCC1)Nc1ccccc1C(=O)N1CCOCC1	-4
Cc1nn(C2CCCO2)c(=O)nc1N (stereo not given)	14
Cc1ccc(/C=N/NC(=O)c2ccccc2OCc2ccc(F)cc2)o1	-2
Cn1c(CCNC(=O)c2ccccc2F)nnc1SCC(=O)Nc1ccccc1F	0
N#C/C(=C\c1c(N2CCC(C(N)=O)CC2)nc2ccccn2c1=O)C(=O)NCc1ccco1	20
COc1cccc(-c2nn(-c3ccccc3)cc2CN(C)Cc2ccno2)c1	-5
CC(C)CC(COCc1ccc([N+](=O)[O-])cc1)N1CCN(C(=O)c2ccc(C(F)(F)F)cc2)CCC1=O (stereo not given)	13
CC1(C)C(CC2OCC(CN3CCCCC3)O2)[C@H]2CC[C@@H]1C2 (stereo not given in full)	14
COCCCNCCOCCOc1ccc(Cl)cc1Br	11
CC(C)(C)c1cc(NCc2ccccn2)n2ncc(-c3ccccc3)c2n1	13
CC1CCN(C(=O)c2[nH]cnc2C(=O)N[C@@H](CCCCNC(=O)OC(C)(C)C)C(=O)OC(C)(C)C)CC1	1
CCC(CC)c1nnc(NC(=O)c2nn(C)c(=O)c3ccccc23)s1	13
Cc1ccccc1SCC(=O)OCC(=O)Nc1sccc1C(N)=O	3
COc1ccc(CN2C(=O)CC(Cc3cc(C)cc(C)c3)C2=O)cc1OC (stereo not given)	10
COc1ccc(CCN(Cc2ccccn2)C(=S)Nc2cccc(C)c2)cc1OC	10
CCn1ncc(Br)c1C(=O)NC(C)c1ccccc1 (stereo not given)	17
Cc1ccc(SCc2nc(N)nc(Nc3ccccc3C)n2)cc1C	10
COC(=O)c1cc(C)ccc1OCc1ccc([N+](=O)[O-])cc1	18
COc1ccccc1Nc1ccc(N)cc1	23
NC1=NC(=O)/C(=C\c2ccsc2)S1	35
CCN(CC)c1ccc(NC(=O)c2cccc(C)c2)cc1S(=O)(=O)Nc1ccccc1OC	8
O=C(Cc1ccc(Cl)cc1)NNC(=S)NC(=O)c1cccnc1	14
CSc1ccccc1NC(=O)CN(C)CC(=O)Nc1ccc(Cl)cc1[N+](=O)[O-]	-1
O=C1C=CC(=O)C(C2=C3C(=O)N(CCc4ccccc4)CC(=O)N3CCC2)=C1	8
CCOC(=O)N1CCN(C(=O)c2cc3c(s2)-c2ccc(Cl)cc2S(=O)(=O)C3)CC1	22
O=C(Nc1cccc(S(=O)(=O)c2cccc(NC(=O)c3ccco3)c2)c1)c1ccco1	15
OC1(c2ccccc2)Cc2cccc[n+]2C1c1ccccc1 (stereo not given)	25
CCCOC(=O)CSc1nc(N)c(C#N)c(-c2ccco2)c1C#N	11
COC(=O)[C@@H]1C[C@@]2(O)[C@H](O)[C@H](O)[C@H](O)C[C@H]2N1Cc1ccc(C(C)(C)C)cc1	15
O=C(Nc1ccccc1Cl)c1ccc(Cl)cc1Cl	10
O=C(CSCc1ccc(Br)cc1)N=Nc1c(O)[nH]c2ccccc12	15
CCCCOc1ccc(N(CC(=O)NCC2CCCO2)C(=O)CCC(=O)Nc2cc(C)ccn2)cc1 (stereo not given)	7
CCOc1ccc(N2CC(O)=C(c3ccccc3)C2=N)cc1	11
COc1ccc(C(=O)NCC(=O)N2CCCC(C)C2)cc1OC (stereo not given)	0
O=C(CCc1ccccc1)Nc1ccccc1C(=O)NCc1ccco1	10
COc1ccc2sc(N(CCCN(C)C)C(=O)c3nc4ccccc4s3)nc2c1	10
CC(=O)NC1=NN(C(C)=O)C(C)(CS(=O)(=O)c2ccc(Cl)cc2)S1 (stereo not given)	6
CC(C)(C)c1ccccc1NC(=O)Cn1cnc2cc([N+](=O)[O-])ccc2c1=O	5

Part of the list above in order of length of the SMILES, lowest first.
SMILES	Calb biofilm kill
O=C(CCc1ccccc1)Nc1ccccc1C(=O)NCc1ccco1	10
O=C(CSCc1ccc(Br)cc1)N=Nc1c(O)[nH]c2ccccc12	15
COc1ccc2sc(N(CCCN(C)C)C(=O)c3nc4ccccc4s3)nc2c1	10

Following part
SMILES	Calb biofilm kill
C/C(=N/NC(=O)CN1CCN(S(=O)(=O)c2ccc(C)cc2)CC1)c1ccco1	16
Cc1ccc(S(=O)(=O)N2CCN(C(=O)Cc3ccc4c(c3)OCCO4)CC2)cc1C	13
Cc1cccc2sc(NC(=O)CN3C(=O)C4CC=CCC4C3=O)nc12 (stereo not given)	13
CC1=C(C(=O)OCc2ccc3c(c2)OCO3)C(c2cccc([N+](=O)[O-])c2)NC(=O)N1 (stereo not given)	4
CCc1nnc(NS(=O)(=O)c2ccc(NC(=S)NC(=O)c3cccnc3)cc2)s1	25
C/C(=N/Nc1ccc([N+](=O)[O-])cc1)c1ccc(C)cc1C	27
COc1ccc(CCNC(=S)NCc2cccs2)cc1OC	8
Cc1[nH]nc(Sc2ccccn2)c1[N+](=O)[O-]	10
O=C1CCN(C(=O)c2ccc(Cl)cc2)N1	16
Cc1c(N=C(N)/N=C(\N)Nc2ccc(Br)cc2)c(=O)n(-c2ccccc2)n1C	14
Cc1cc(C)nc(NS(=O)(=O)c2ccc(NC(=O)C3(c4ccccc4)CCCC3)cc2)n1	9
Fc1ccc(-n2c(-c3cc(C4CC4)[nH]n3)n[nH]c2=S)cc1Cl	2
Cc1ccccc1CS(=O)(=O)c1cn(CC(=O)N2CCC(C)CC2)c2ccccc12	13
COc1ccc(CC2(CO)CCN(Cc3nc(C(C)C)cs3)CC2)cc1	-7
Cc1ccccc1NC(=O)COC(=O)Cc1ccsc1	20
CN(C)C(CNC(=O)c1cc(S(=O)(=O)N(C)c2ccccc2)ccc1Cl)c1ccccc1 (stereo not given)	20
C/C(=N\Nc1cc(C)nc(NCc2ccccc2)n1)c1cccc([N+](=O)[O-])c1	27
C/C(=N\OC(=O)c1ccc(C)cc1)c1c(C)nc2cc(C)ccn12	1
O=C(O)CCNC(=O)CCCn1nnc2ccccc2c1=O	5
O=C(Nc1ccncc1)c1ccc(NS(=O)(=O)c2cccc(F)c2)cc1	-3
CCc1ccccc1NC(=O)N1CCCC(CCC(=O)N(C)CCc2ccccn2)C1 (stereo not given)	3
C/C(Cn1cnc([N+](=O)[O-])n1)=N\NC(=O)c1ccccc1F	16
CC(C)(C)CC(=O)O/N=C(\N)c1ccccn1	9
O=C(Nc1cc2c(cc1Cl)OCCCO2)c1ccc(F)cc1	14
Cc1csc2c(N3CCN(C(=O)Nc4ccc(Cl)c(Cl)c4)CC3)ncnc12	24
COc1ccc(Nc2cccc(Cl)c2)c(C(=O)O)c1	16
Cc1c(NC(=O)C(C)Sc2ncnc3ccccc23)c(=O)n(-c2ccccc2)n1C (stereo not given)	16
COc1cc(C2CC(=O)Oc3c2c(=O)n(C)c2ccccc32)ccc1O (stereo not given)	3
O=C1N/C(=N/O)S/C1=C/c1cccc([N+](=O)[O-])c1	36

Part of the list above in order of number of heavy atoms, falling.
SMILES	Calb biofilm kill
CN(C)C(CNC(=O)c1cc(S(=O)(=O)N(C)c2ccccc2)ccc1Cl)c1ccccc1 (stereo not given)	20
CCc1ccccc1NC(=O)N1CCCC(CCC(=O)N(C)CCc2ccccn2)C1 (stereo not given)	3
Cc1c(NC(=O)C(C)Sc2ncnc3ccccc23)c(=O)n(-c2ccccc2)n1C (stereo not given)	16
C/C(=N\Nc1cc(C)nc(NCc2ccccc2)n1)c1cccc([N+](=O)[O-])c1	27
Cc1csc2c(N3CCN(C(=O)Nc4ccc(Cl)c(Cl)c4)CC3)ncnc12	24
COc1cc(C2CC(=O)Oc3c2c(=O)n(C)c2ccccc32)ccc1O (stereo not given)	3
C/C(=N\OC(=O)c1ccc(C)cc1)c1c(C)nc2cc(C)ccn12	1
C/C(Cn1cnc([N+](=O)[O-])n1)=N\NC(=O)c1ccccc1F	16
Cc1ccccc1NC(=O)COC(=O)Cc1ccsc1	20
COc1ccc(Nc2cccc(Cl)c2)c(C(=O)O)c1	16
O=C1N/C(=N/O)S/C1=C/c1cccc([N+](=O)[O-])c1	36
CC(C)(C)CC(=O)O/N=C(\N)c1ccccn1	9
